# LMNA splice mod: qHTS Assay for Modulators of Lamin A Splicing | AID 1487, 2009 | Potency, µM (series often up to 46.1 µM), inactives show at the highest dose ratio change, negative = inhibition, hits mostly inhibitors | 200,000 compounds, 0.01% hits | HeLa LMNA splicing GFP/RFP minigene ratio, 48 h; active = well fitted inhibition curve with a large enough effect in the signal ratio, with a control signal flat, not every such curve was filed as active; inconclusive = small, poorly fitted or top-dose-only effect, or effect the other way, or a change in a side signal; the % refers to the signal ratio; note: % is set by controls: 0 for no effect and ±100 for the full control effect
#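 Read-out is the ratio of GFP to DsRed2 object intensity, acquired by 488 nm laser-scanning cytometry on HeLa lamin A-EGFP minigene reporter cells. Compound incubation 48 hrs at 37 °C in Opti-MEM with 2% FBS; DMSO 0.5% final.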
# aGal spleen mod: qHTS Assay for Inhibitors and Activators of Human alpha-Galactosidase From Spleen Homogenate | Alpha-galactosidase A (Homo sapiens), P06280 | human spleen homogenate, 4MU-alpha-Gal fluorescence, 40 min | Potency, µM (top dose mostly 80 µM), inactives show at the top dose activity change, negative = inhibition, hits mostly inhibitors | 240,000 compounds, 0.008% hits;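 note: 0% = enzyme with vehicle and -100% = no enzyme basal signal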
# Target sequence (P06280 32-429 limits assumed): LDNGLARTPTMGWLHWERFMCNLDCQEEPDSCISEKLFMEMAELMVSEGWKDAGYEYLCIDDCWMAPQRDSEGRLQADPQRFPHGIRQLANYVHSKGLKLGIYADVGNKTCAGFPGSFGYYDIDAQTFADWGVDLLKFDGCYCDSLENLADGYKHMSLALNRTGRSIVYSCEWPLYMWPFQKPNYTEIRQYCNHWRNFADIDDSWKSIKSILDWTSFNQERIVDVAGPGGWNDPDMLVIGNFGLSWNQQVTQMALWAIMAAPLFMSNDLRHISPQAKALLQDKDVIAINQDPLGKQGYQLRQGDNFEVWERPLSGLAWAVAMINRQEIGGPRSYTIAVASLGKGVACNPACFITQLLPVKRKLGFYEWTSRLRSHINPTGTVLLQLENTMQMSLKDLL
#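 Human spleen homogenate (1 ug) as enzyme source, 4-methylumbelliferyl-alpha-D-galactopyranoside 1 mM final, citrate/phosphate pH 5.0 with 0.01% Tween-20. Compounds 40 min at 37C, NaOH/glycine stop; fluorescence Ex 365/Em 440, Hill-fit AC50.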
# Epigenetic reg: Quantitative High-Throughput Screen for Regulators of Epigenetic Control; murine LDR cells, GFP reporter derepression, 30 h; 280,000 compounds, 0.2% hits; Potency, µM (highest dose often 53.9 µM), for inactives: at the top dose GFP activation, hits mostly activators; note: % of control where 0% means no effect; nearly all actives have a fitted effect of over 60% in size
#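 Derepression of a silenced CMV-GFP reporter in murine LDR cells is scored by enumerating GFP-positive cells with a laser-scanning microplate cytometer after 30 hours of treatment at 37 C.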
# Luc counter: Counterscreen for Luciferase (Kinase-Glo TM) Inhibition | AID 1379, 2008 | Luciferin 4-monooxygenase (Photuris pensylvanica), Q27757 | 200,000 compounds, 0.28% hits | Kinase-Glo luciferase, ATP luminescence, 8 min | Potency, µM (series often up to 38.3 µM), for inactives: at the highest dose activity change, negative = inhibition, actives largely listed as inhibitors; note: % is set by controls: 0 for no effect and ±100 for the full control effect; nearly all actives have a fitted effect of over 60% in size
#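 Kinase-Glo luciferase light output from ATP and luciferin was measured with 10 uM ATP, within the enzyme's linear range. Buffer: 50 mM imidazole pH 7.2, 50 mM KCl, 7 mM MgCl2, 0.01% Tween 20, 0.05% BSA; luminescence read after 8 min at ambient temperature.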
# An asterisk follows results filed as active; ? = inconclusive; . = no result given; & = joins results of further samples; [ ] = another dose, or the depositor's remark. Unless noted, calls come from the whole dose curve; as a rule, active = well fitted curve in the direction sought with a large enough effect; inconclusive = small, poorly fitted or top-dose-only effect, or another doubt; inactive = no such curve, though single readings can be large; an effect the other way counts as inactive or inconclusive. Potency is the fitted concentration of half-maximal effect. A portion of the library; rates above refer to the full screens.
1. CC(=O)[C@@H]1CC[C@H]2[C@H]3CC[C@H]4C[C@@H](O)CC[C@]4(C)[C@@H]3C(=O)C[C@@]12C
2. CNCCC(Oc1ccc(C(F)(F)F)cc1)c1ccccc1 (configuration not stated)
3. C[C@@H]1O[C@@H](O[C@H]2C[C@@H](O)[C@]3(CO)[C@@H]4C(CC[C@]3(O)C2)[C@@]2(O)CC[C@H](C3=CC(=O)OC3)[C@@]2(C)C[C@H]4O)[C@H](O)[C@H](O)[C@H]1O (some centres not stated)
4. COc1ccc2c(c1OC)C(=O)O[C@@H]2C1c2cc3c(cc2CCN1C)OCO3 (some centres not stated)
5. CNCC[C@@H](Oc1ccc(C(F)(F)F)cc1)c1ccccc1
6. COC(=O)NC(=S)Nc1ccccc1NC(=S)NC(=O)OC
assay / entry | 1 | 2 | 3 | 4 | 5 | 6
LMNA splice mod | -22.9% | ? | ? | . | ? | ?
aGal spleen mod | -0.4%[29.1 µM] | 9.2%&-11.3%&-0.9%&0.7%&7.0% | 11.8%&-5.8%&19.1% | -0.8% | -7.4% | 0.6%&2.0%
Epigenetic reg | 1.1%[16.9 µM] | 1.0%&0.0%&0.0%&3.2%&1.3% | -0.2%&0.0%&-7.3% | 5.0% | -0.1% | 1.5%
Luc counter | 0.7%[17.1 µM] | -2.8% | -2.9%&1.8% | 3.3% | -1.4% | -0.5%

# Single records, from the list above.
# Results for `COC(=O)NC(=S)Nc1ccccc1NC(=S)NC(=O)OC` = LMNA splice mod = ?; aGal spleen mod = 0.6%&2.0%; Epigenetic reg = 1.5%; Luc counter = -0.5%
# Results for `CNCC[C@@H](Oc1ccc(C(F)(F)F)cc1)c1ccccc1` = LMNA splice mod = ?; aGal spleen mod = -7.4%; Epigenetic reg = -0.1%; Luc counter = -1.4%

# Going on with the list:
7. ClCC1CO1 (configuration not stated)
8. C[C@@]12CCC(=O)C[C@@H]1CC[C@@H]1[C@@H]2CC[C@]2(C)C(=O)CC[C@@H]12
9. CC(C)(C)C(O)C(Oc1ccc(-c2ccccc2)cc1)n1cncn1 (configuration not stated)
10. O=S(=O)(c1ccc(Cl)cc1)N1CC1c1ccccc1 (configuration not stated)
11. C[C@H]1C[C@H](C)C(=O)[C@@H]([C@H](O)CC2CC(=O)NC(=O)C2)C1
12. C[C@@H]1C[C@@H]([C@H](O)CC2CC(=O)NC(=O)C2)C(=O)[C@@H](C)C1
assay / entry | 7 | 8 | 9 | 10 | 11 | 12
LMNA splice mod | . | . | . | -1.8% | . | .
aGal spleen mod | 16.2% | -0.7% | -0.4% | 4.0% | 0.8% | 11.9%&5.8%&1.9%
Epigenetic reg | . | -1.3% | . | 1.0% | ? | ?
Luc counter | . | -0.9% | . | 1.5% | 4.2% | -3.8%

13. CCc1nc(N2CCNCC2)c(C#N)c2c1CSC(C)(C)C2
14. O=C1C=C2C(=CCOC2O)O1 (configuration not stated)
15. CN[C@H](C)[C@H](O)c1ccccc1
16. CC12CCC(=O)C=C1CCC1C2CCC2(C)C(O)CCC12 (configuration not stated)
17. CC(C)NS(=O)(=O)c1ccc(OCC(=O)N2CCN(Cc3ccccc3)CC2)c(Cl)c1
18. CCOC(=O)c1cc(CC)sc1/N=C/C1C(=O)NC(=S)NC1=O
assay / entry | 13 | 14 | 15 | 16 | 17 | 18
LMNA splice mod | 12.5% | . | -6.4%[46 µM] | -0.5% | ? | ?
aGal spleen mod | 4.6% | 1.3% | 7.8% | 8.2% | 6.9% | 3.3%
Epigenetic reg | -3.3% | 2.7% | -4.2% | -0.9% | -2.1% | -2.7%
Luc counter | . | -5.2% | . | 1.0% | 1.8% | -0.1%

# Compounds 9 to 18, reprinted for reference:
9. CC(C)(C)C(O)C(Oc1ccc(-c2ccccc2)cc1)n1cncn1 (configuration not stated)
10. O=S(=O)(c1ccc(Cl)cc1)N1CC1c1ccccc1 (configuration not stated)
11. C[C@H]1C[C@H](C)C(=O)[C@@H]([C@H](O)CC2CC(=O)NC(=O)C2)C1
12. C[C@@H]1C[C@@H]([C@H](O)CC2CC(=O)NC(=O)C2)C(=O)[C@@H](C)C1
13. CCc1nc(N2CCNCC2)c(C#N)c2c1CSC(C)(C)C2
14. O=C1C=C2C(=CCOC2O)O1 (configuration not stated)
15. CN[C@H](C)[C@H](O)c1ccccc1
16. CC12CCC(=O)C=C1CCC1C2CCC2(C)C(O)CCC12 (configuration not stated)
assay / entry | 9 | 10 | 11 | 12 | 13 | 14 | 15 | 16
LMNA splice mod | . | -1.8% | . | . | 12.5% | . | -6.4%[46 µM] | -0.5%
aGal spleen mod | -0.4% | 4.0% | 0.8% | 11.9%&5.8%&1.9% | 4.6% | 1.3% | 7.8% | 8.2%
Epigenetic reg | . | 1.0% | ? | ? | -3.3% | 2.7% | -4.2% | -0.9%
Luc counter | . | 1.5% | 4.2% | -3.8% | . | -5.2% | . | 1.0%

17. CC(C)NS(=O)(=O)c1ccc(OCC(=O)N2CCN(Cc3ccccc3)CC2)c(Cl)c1
18. CCOC(=O)c1cc(CC)sc1/N=C/C1C(=O)NC(=S)NC1=O
assay / entry | 17 | 18
LMNA splice mod | ? | ?
aGal spleen mod | 6.9% | 3.3%
Epigenetic reg | -2.1% | -2.7%
Luc counter | 1.8% | -0.1%

# Next part:
19. O=C(c1cccc([N+](=O)[O-])c1)C12CN3CN(CN(C3)C1)C2
20. CC(C)(C)c1ccccc1O
21. CN1C(=O)CN=C(c2ccccc2)c2cc([N+](=O)[O-])ccc21
22. CN(C)CCO
23. COc1ccccc1N
24. C[C@@H]1O[C@@H](O[C@H]2C[C@@H](O)[C@@]3(CO)[C@H]4[C@H](O)C[C@]5(C)[C@@H](C6=CC(=O)OC6)CC[C@]5(O)[C@H]4CC[C@@]3(O)C2)[C@@H](O)[C@H](O)[C@H]1O
assay / entry | 19 | 20 | 21 | 22 | 23 | 24
LMNA splice mod | ? | . | ? | . | . | ?
aGal spleen mod | 3.4% | 4.1% | -4.9% | 7.1% | -4.3% | .
Epigenetic reg | -1.4% | . | -1.1% | -2.1% | . | .
Luc counter | 0.4% | . | . | -0.4%[39.9 µM] | . | -3.9%[7.66 µM]

25. COc1ccc(C(=O)N2CCCC2=O)cc1
26. COP(=S)(OC)SCn1nnc2ccccc2c1=O
27. Cc1cccc(C)c1NC(=O)c1cccn(Cc2ccc3c(c2)OC(F)(F)O3)c1=O
28. C[C@H]1O[C@@H](O[C@H]2[C@@H](O)C[C@H](O[C@H]3[C@@H](O)C[C@H](O[C@H]4CC[C@@]5(C)[C@H](CC[C@@H]6[C@@H]5CC[C@]5(C)[C@@H](C7=CC(=O)OC7)CC[C@]65O)C4)O[C@@H]3C)O[C@@H]2C)C[C@H](O)[C@@H]1O
29. CCC(=O)OC1CCC2C3CCC4=CC(=O)CC[C@@]4(C)C3CC[C@]12C (some centres not stated)
30. C[C@H]1O[C@@H](O[C@H]2[C@@H](O)C[C@H](O[C@H]3[C@@H](O)C[C@H](O[C@H]4CC[C@]5(C)C6CC[C@]7(C)[C@@H](C8=CC(=O)OC8)CC[C@]7(O)C6CC[C@@H]5C4)O[C@@H]3C)O[C@@H]2C)C[C@H](O)[C@@H]1O (some centres not stated)
assay / entry | 25 | 26 | 27 | 28 | 29 | 30
LMNA splice mod | ? | ? | -11.3% | ? | . | .
aGal spleen mod | 1.2%&-6.3%&-2.9%&3.1% | 7.7%&1.1% | -3.4% | 0.7% | -4.1% | -1.5%
Epigenetic reg | -3.9%&-1.2%&2.4%&-1.1% | 7.9% | -0.9% | -1.0% | -1.3% | -1.5%
Luc counter | 1.1%&-0.8%&-3.5%&-1.2% | -3.6% | 2.3% | -0.3% | -1.1% | -0.8%

# Assay outcomes (PubChem BioAssay)
